Screens: PubChem BioAssay, several laboratories
VCAM-1 inhibition: inhibitors of TNFa-induced VCAM-1 surface display, cell-based, plate reader, pooled HUVEC, TNFa stimulus (AID 454) | HUVEC TNFa-induced VCAM-1 surface immunofluorescence, plate reader; numbers were filed only for top-ranked candidate wells | inhibition, % at 5 µM | actives 0.2% (n = 10,000);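 active = compound among top-ranked inhibitors of TNF-induced VCAM-1 adhesion protein staining, with the hit upheld by image or statistical review; inactive = the rest, including hits rejected on review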;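 note: 0% = TNFa with vehicle and 100% = cells without TNFa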
FPR binder: ligands of human FPR, also counter-screen for FPRL1 ligands; FPR-expressing cells, fluorescent ligand binding, flow cytometry; inhibition, %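 (tested at 6.7 µM)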; actives 0.74% (n = 24,000);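 note: 0% = buffer wells and 100% = receptor blocker peptide wells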
Target sequence (P21462 whole entry, looked up): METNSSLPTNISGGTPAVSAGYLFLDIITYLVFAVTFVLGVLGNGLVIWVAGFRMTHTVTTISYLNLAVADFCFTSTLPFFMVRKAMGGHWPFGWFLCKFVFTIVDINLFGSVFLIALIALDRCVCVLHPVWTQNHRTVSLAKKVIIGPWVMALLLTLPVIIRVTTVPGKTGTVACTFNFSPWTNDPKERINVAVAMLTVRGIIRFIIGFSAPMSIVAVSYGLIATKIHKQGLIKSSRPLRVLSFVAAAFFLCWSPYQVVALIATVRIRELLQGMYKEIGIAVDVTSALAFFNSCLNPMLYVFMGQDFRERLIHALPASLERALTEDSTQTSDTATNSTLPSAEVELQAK
VCAM-1 augmentation: enhancers of VCAM-1 display on endothelial cells, imaging, high-content imaging, pooled HUVEC, TNFa stimulus (AID 457) | Pooled HUVEC, TNFa-induced VCAM-1 immunofluorescence imaging; hits of this screen are not shown here | calls only | actives 0.2% (n = 10,000);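 active = a top-ranked rise in VCAM-1 staining upheld on image or statistical review; inactive = the rest, including candidates rejected on review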;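 note: compounds tested at 5 µM in the well; cells exposed to compound for 24 hours before fixing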
VCAM-1 imaging: suppression of endothelial VCAM-1 upregulation – imaging, high-content imaging, pooled HUVEC, TNFa stimulus (AID 456) | inhibition, % at 5 µM; hits with a dose series show IC50 in µM | HUVEC TNFa-induced VCAM-1 surface expression, immunofluorescence imaging; numbers were filed only for top-ranked candidate wells | actives 0.2% (n = 10,000);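 active = top tenth filtered wells with inhibition above zero that passed visual or statistical confirmation; inactive = the rest, including hits rejected on review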;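 note: 0% = stimulated vehicle wells and 100% = unstimulated cells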
FPRL1 binder: binds the human formylpeptide receptor-like-1 FPRL1 | AID 441 | actives 0.3% (n = 24,000) | inhibition, %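 (tested at 6.7 µM)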 | FPRL1-expressing cells, fluorescent ligand binding inhibition, flow cytometry;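 note: 0% = buffer alone and 100% = receptor blocker peptide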
Target sequence (P25090 whole entry, looked up): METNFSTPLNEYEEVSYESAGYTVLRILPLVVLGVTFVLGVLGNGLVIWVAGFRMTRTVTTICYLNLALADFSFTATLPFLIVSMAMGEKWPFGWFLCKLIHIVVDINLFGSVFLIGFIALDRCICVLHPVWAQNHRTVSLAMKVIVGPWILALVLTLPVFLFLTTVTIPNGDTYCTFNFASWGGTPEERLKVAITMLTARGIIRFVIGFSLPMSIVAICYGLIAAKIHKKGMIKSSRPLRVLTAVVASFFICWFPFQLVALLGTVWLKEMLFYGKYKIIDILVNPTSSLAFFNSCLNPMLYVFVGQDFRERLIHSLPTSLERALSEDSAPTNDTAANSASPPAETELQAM
Starred values were filed as active, the others as inactive; i = inactive; x = no result given.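 Rule for the calls, unless noted: active = mean above 30%; inconclusive = self-fluorescent; inactive = the rest.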 Only part of the results is shown (hit frequency here may not be typical).

Sample of the layout (five entries):
Second line of a record: FPR binder	VCAM-1 imaging	FPRL1 binder	VCAM-1 augmentation	VCAM-1 inhibition
CCn1c(=S)ccc2ccc(OC)cc21
 : -2.5	i	5.0	i	i
CC(=O)N1CCc2cc(S(=O)(=O)NCCC(=O)Nc3ccc4c(c3)OCCO4)ccc21
 : -11.5	x	-5.5	x	x
CCOC(=O)Cn1c(=NC(=O)CSC(C)=O)sc2cc(OC)ccc21
 : 25.2	x	15.3	x	x
CC(C)(C)NS(=O)(=O)c1cccc2nsnc12
 : 1.3	x	10.4	x	x
Cc1cc(C)c(NC2=NCC(=O)N2C2CCCCC2)c(C)c1
 : -5.5	i	1.5	i	i

The listing (from the top)
Second line of a record: FPR binder	VCAM-1 imaging	FPRL1 binder	VCAM-1 augmentation	VCAM-1 inhibition
CCn1c(=S)ccc2ccc(OC)cc21
 : -2.5	i	5.0	i	i
CC(=O)N1CCc2cc(S(=O)(=O)NCCC(=O)Nc3ccc4c(c3)OCCO4)ccc21
 : -11.5	x	-5.5	x	x
CCOC(=O)Cn1c(=NC(=O)CSC(C)=O)sc2cc(OC)ccc21
 : 25.2	x	15.3	x	x
CC(C)(C)NS(=O)(=O)c1cccc2nsnc12
 : 1.3	x	10.4	x	x
Cc1cc(C)c(NC2=NCC(=O)N2C2CCCCC2)c(C)c1
 : -5.5	i	1.5	i	i
CCc1ccc(N2CCN(C(=O)c3ccc(OC)c(OC)c3)CC2)cc1
 : -1.8	x	2.3	x	x
CC(=O)c1cccc(NC(=O)NCc2ccco2)c1
 : 16.0	i	4.4	i	i
Cc1ccc(C2CC(c3ccccc3OC(F)F)Nc3ncnn32)cc1 (stereo not drawn)
 : -3.7	x	-5.6	x	x
Cc1n[nH]c(C)c1CCc1nc2c3ccccc3nc(SCC(N)=O)n2n1
 : -1.4	x	-1.2	x	x
O=C1CNC(=O)/C1=C\N1CCCCC1
 : -6.6	x	2.0	x	x
O=C(NCCN1CCOCC1)c1cc(-c2ccc(F)cc2)on1
 : 2.4	x	-1.4	x	x
O=C(NCc1ccc2c(c1)OCO2)C1CC(=O)N(C2CCCC2)C1 (stereo not drawn)
 : 0.8	x	6.3	x	x
O=C1c2ccccc2C(Nc2cccnc2)N1Cc1ccc2c(c1)OCO2 (stereo not drawn)
 : -0.8	x	-5.4	x	x
CC(C)(C)OC(=O)N1CCCC1C(=O)N1CCCC1C(=O)N1CCCC1C(=O)O (stereo not drawn)
 : -1.2	i	2.0	i	i
COC(=O)c1oc2ccc(Br)cc2c1NC(C)=O
 : -2.4	i	-2.8	i	i
CCn1cc(C(=O)NCCCN2CCC(C)CC2)c(=O)c2cc(S(=O)(=O)N3CCCC3)ccc21
 : 3.3	x	7.7	x	x
COc1ccccc1NC(=O)C1=C(C)Nc2nc(-c3ccc(N(C)C)cc3)nn2C1c1ccncc1 (stereo not drawn)
 : 4.7	x	-4.0	x	x
O=C(NCCCN1CCN(c2ccccc2)CC1)Nc1ccccc1C(F)(F)F
 : -2.4	x	-2.1	x	x
CC(=O)N1CCCc2cc(S(=O)(=O)NC(C(=O)NC(C)c3ccccc3)C(C)C)ccc21 (stereo not drawn)
 : 2.7	x	6.8	x	x
CCC(C)N1C(=O)C2C(C(=O)Nc3cccc(OC)c3)C3C=CC2(O3)C1C(=O)NC1CCCCC1C (stereo not drawn)
 : 1.8	x	6.3	x	x
COc1cccc2cc(C(=O)N3CCN(C45CC6CC(CC(C6)C4)C5)CC3)c(=O)oc12
 : -2.1	i	2.1	i	i
c1ccc(-c2nnc3sc(-c4csc5c4CCCC5)nn23)cc1
 : -3.8	x	0.4	x	x
Cc1c(NC(=O)CSc2nnc3sc4ccccc4n23)c(=O)n(-c2ccccc2)n1C
 : -3.0	i	-1.1	i	i
Cc1ccc(S(=O)(=O)Cc2ccc(C(=O)N3CCN(c4ccc(F)cc4)CC3)o2)cc1
 : 10.9	x	0.9	x	x
Cc1ccc(NC(=O)Cn2cnc3c(cnn3C(C)(C)C)c2=O)cc1
 : -2.1	x	-4.4	x	x
Cc1ccsc1C1CC(=O)NC2=C1C(=O)CC(C)(C)C2 (stereo not drawn)
 : -3.5	x	-2.9	x	x
CCOC(=O)Nc1nnc(-c2ccccc2OC)s1
 : 4.6	i	3.5	i	i
CCOC(=O)CSc1nc2c(sc(=S)n2Cc2ccco2)c(=O)n1-c1ccccc1
 : -2.7	x	-0.6	x	x
Cc1ccccc1CSc1nnc(Cn2c(=O)sc3ccccc32)n1C
 : 1.4	x	5.5	x	x
CCOC(=O)Cn1c(=N)n(CCOc2cccc(C)c2)c2ccccc21
 : -4.0	i	-6.4	i	i
O=C1CC(c2cccc(F)c2)C2=C(CCCC2=O)N1 (stereo not drawn)
 : 3.1	x	4.1	x	x
CSC1=NCCN1C(=O)c1c(F)cccc1Cl
 : -4.0	x	1.3	x	x
O=C(c1coc(=O)c2ccccc12)N1CCN(Cc2ccccc2)CC1
 : -4.4	x	1.0	x	x
O=C(C1CC1c1ccccc1)N1CCN(c2cccc(Cl)c2)CC1 (stereo not drawn)
 : -6.2	x	2.3	x	x
Cc1cnc(C(=O)Nc2ccc(N3CCN(C(=O)OC(C)(C)C)CC3)cc2)cn1
 : -1.0	i	2.4	i	i
COc1ccc(C(=O)Nc2nc(C)c(C(=O)N(C)C)s2)cc1OC
 : -4.8	i	-4.0	i	i
Cc1csc(SCc2nc3sc4c(c3c(=O)[nH]2)CCC4)n1
 : 18.1	i	11.5	i	i
CC1(C)Cc2c(C#N)c(N3CCCC3)nc(-c3ccco3)c2CO1
 : -0.1	x	-0.7	x	x
Cc1nnc(NC(=O)c2ccco2)s1
 : -4.8	i	1.7	i	i
CCn1c(N)c(C(=O)NC2CCCCC2)sc1=S
 : -4.3	x	-10.5	x	x
O=C(Nc1cccc(Cl)c1)N1CCN(Cc2ccccc2)CC1
 : -0.5	i	-0.7	i	i
COc1cccc(C2C(C#N)=C(N)Oc3cc(C)n(Cc4ccccn4)c(=O)c32)c1OC (stereo not drawn)
 : 3.4	x	2.0	x	x
c1ccc(Cc2nnc3n2CCCCC3)cc1
 : -0.3	i	1.4	i	i
CCc1cc2c(=O)n(C(C)C(=O)OC3CCCCC3)cnc2s1 (stereo not drawn)
 : 3.1	i	-1.9	i	i
COc1ccc(C2C(C(=O)Nc3cccc(C)n3)CCC(=O)N2c2ccc(OC)cc2)cc1 (stereo not drawn)
 : -0.3	x	-1.9	x	x
O=C(Nc1ccc(Br)cc1)N1CCCCCCC1
 : -5.2	x	-1.9	x	x
Cc1ccc(-c2nn(C)c(=O)c3ccccc23)cc1S(=O)(=O)N1CCOCC1
 : -10.0	i	-8.3	i	i
COCCNC(=O)c1c[nH]n2c(=O)cc(C3CCN(C(=O)OC(C)(C)C)CC3)nc12
 : 2.2	x	-0.2	x	x
Cc1cc(N2C(=O)C(=O)/C(=C(/O)c3ccccc3)C2c2cccc(Br)c2)no1 (stereo not drawn)
 : -1.3	x	-8.1	x	x
CCn1c(SCC(=O)Nc2ccccc2F)nc2c(c1=O)SC(C)C2 (stereo not drawn)
 : 0.9	i	4.3	i	i

New compounds follow
Second line of a record: FPR binder	VCAM-1 imaging	FPRL1 binder	VCAM-1 augmentation	VCAM-1 inhibition
COc1ccccc1C(=O)NCCn1cc(SCC(=O)Nc2nnc(C)s2)c2ccccc21
 : 5.1	x	-7.2	x	x
COc1ccc(CCN2C(=O)C3C4C=CC(C4)C3C2=O)cc1OC (stereo not drawn)
 : -2.2	i	-1.9	i	i
O=C(NC1(C(F)(F)F)NC(=O)N(Cc2ccco2)C1=O)c1cccnc1 (stereo not drawn)
 : -5.2	i	-5.9	i	i
Cc1[nH]c(=O)[nH]c(=O)c1S(=O)(=O)N1CCCC(C(=O)NCCc2ccc(Cl)cc2)C1 (stereo not drawn)
 : -1.1	x	1.0	x	x
Cc1ccc(S(=O)(=O)NC(CC(=O)NC2CCCC2)c2ccco2)cc1 (stereo not drawn)
 : -0.5	x	1.3	x	x
CC(CCC(=O)Nc1nncs1)C(=O)O (stereo not drawn)
 : -1.7	i	-5.0	i	i
COc1ccc(/C(O)=C2/C(=O)C(=O)N(CCN(C)C)C2c2ccccn2)cc1OC (stereo not drawn)
 : 0.3	i	7.9	i	i
Cc1cc(C(=O)NC(C)C)on1
 : -4.0	x	1.1	x	x
CCOc1ccc(CNC(=O)C(CC)n2nc(C)n3c(cc4occc43)c2=O)cc1OC (stereo not drawn)
 : 6.3	x	2.6	x	x
Cc1cc(C)c2c(n1)nn1c(NCCCN3CCOCC3)cc(C)nc21
 : 1.1	i	-4.6	i	i
CC1(C)CC(=O)C2=C(C1)Nc1ccccc1NC2c1nc2ccccc2[nH]1 (stereo not drawn)
 : -0.8	x	-6.3	x	x
COCCn1c(=O)[nH]c2cc(C(=O)N3CCN(c4ccccc4OC)CC3)ccc2c1=O
 : 9.7	i	-10.4	i	i
COc1cccc(OC)c1C(=O)Nc1ccc(CN2CCCCC2)cc1
 : 4.9	i	-2.2	i	i
NC1=CC(=O)c2cccc3cccc1c23
 : -2.8	x	-28.8	x	x
COc1cccc(NS(=O)(=O)c2cc(C)sc2C)c1
 : 0.3	i	-5.1	i	i
C(=N\n1cnnc1)/c1cccnc1
 : -9.1	i	0.2	i	i
COC(=O)c1cc(OC)c(OCc2cc(C(=O)OC)oc2C)c(OC)c1
 : 2.3	i	5.4	i	i
CCOC(=O)c1c(C)c(C(=O)NCc2cccs2)c(C)n1CC
 : 2.9	x	-7.4	x	x
O=C(CSc1nnc(-c2ccccc2Cl)o1)N1CCCCC1
 : -1.1	x	-0.6	x	x
CCCc1c(OCCCCc2nn[nH]n2)ccc(C(C)=O)c1O
 : -4.0	i	-3.3	i	i
Cc1cc(C)c(C#N)c(SCc2[nH]nc3c2C(c2ccccc2)C(C#N)=C(N)O3)n1 (stereo not drawn)
 : -6.4	i	-9.6	i	i
Cc1noc(N)c1C(=O)Nc1ccc(F)c(Cl)c1
 : -2.8	x	6.8	x	x
C#CCSc1nnc(-c2ccccc2)c(=O)[nH]1
 : 1.1	i	0.7	i	i
O=C(COc1ccc(Cl)cc1)NCc1nnc(SCC(=O)NC2CCCC2)o1
 : 7.1	x	4.3	x	x
CC(C)CCNC(=O)CCS(=O)(=O)c1cccc2nonc12
 : 6.2	x	1.4	x	x
COC(=O)Nc1nc2ccc(C(=O)c3ccccc3)cc2[nH]1
 : -3.8	i	-0.7	i	89.0
CCOC(=O)CNC(=O)Cn1cnc2ccc(S(=O)(=O)N3CCC(C)CC3)cc2c1=O
 : 13.4	x	4.1	x	x
Cc1cccc(NC(=O)CCn2ccnc2C)c1
 : -0.3	i	3.5	i	i
CCOC(=O)Cc1csc(NC(=O)CN2C(=O)c3ccccc3S2(=O)=O)n1
 : 10.0	x	2.5	x	x
COc1ccccc1CN1C(=O)c2ccncc2C1=O
 : 3.4	x	0.8	x	x
CCOC(=O)Cc1csc(NC(=O)CN(C)S(=O)(=O)c2ccc3c(c2)CCC(=O)N3)n1
 : -3.4	i	3.4	i	i
CCn1c(SCC(=O)c2ccccc2)nc2c(c1=O)SC(C)C2 (stereo not drawn)
 : 4.6	x	-0.3	x	x
COCCN1C(=O)c2ccccc2C(C(=O)N2CCN(c3ccccn3)CC2)C1c1ccc(F)cc1 (stereo not drawn)
 : 2.1	x	2.0	x	x
COc1cccc(OCCSc2nnc3sc4ccccc4n23)c1
 : 9.0	i	8.4	i	i
CC1CCCC(C)N1CCCNC(=O)c1cc2c(=O)n(C)c3ccccc3c2n1C (stereo not drawn)
 : 3.3	x	12.6	x	x
c1ccc(SCc2nc3ccccc3[nH]2)nc1
 : -5.9	i	2.3	i	i
COCCNC(=O)COc1cc(=O)n(C)c2ccccc12
 : 0.1	x	-4.0	x	x
COc1cccc(CNC(=O)CCCNS(=O)(=O)c2cccs2)c1
 : 1.8	x	0.6	x	x
Clc1cc(Cl)c2nc(N3CCCC3)sc2c1
 : 0.9	x	0.0	x	x
CCOC(=O)N1CCN(C(=O)C2CCN(C(=O)c3cc4sccc4n3CC)CC2)CC1
 : 0.8	x	2.2	x	x
CC(C)(C)N=C1NC(=NC(C)(C)C)c2ccccc21
 : 1.9	i	6.2	i	i
O=C(CC1(O)C(=O)Nc2ccccc21)c1ccc2c(c1)OCO2 (stereo not drawn)
 : -3.8	i	0.6	i	i
CCC(=O)N1CCc2cc(S(=O)(=O)NC(C(=O)NCc3ccc(C)cc3)C(C)C)ccc21 (stereo not drawn)
 : 13.1	x	2.2	x	x
